Assay outcomes (PubChem BioAssay)
PKM2 act: increases activity of human pyruvate kinase M2 | purified PKM2, Kinase-Glo ATP luminescence, activation; response scale: 0% is enzyme alone, no compound | Potency, µM (doses to about 57.5 µM), without a hit: at the top dose activation, usual class: activators | actives 0.34% (n = 260,000) | AID 1631; further: potency means the concentration at half of the fitted maximal effect; nearly all actives have a fitted effect of over 55% in size
Target sequence (P14618 whole entry, looked up): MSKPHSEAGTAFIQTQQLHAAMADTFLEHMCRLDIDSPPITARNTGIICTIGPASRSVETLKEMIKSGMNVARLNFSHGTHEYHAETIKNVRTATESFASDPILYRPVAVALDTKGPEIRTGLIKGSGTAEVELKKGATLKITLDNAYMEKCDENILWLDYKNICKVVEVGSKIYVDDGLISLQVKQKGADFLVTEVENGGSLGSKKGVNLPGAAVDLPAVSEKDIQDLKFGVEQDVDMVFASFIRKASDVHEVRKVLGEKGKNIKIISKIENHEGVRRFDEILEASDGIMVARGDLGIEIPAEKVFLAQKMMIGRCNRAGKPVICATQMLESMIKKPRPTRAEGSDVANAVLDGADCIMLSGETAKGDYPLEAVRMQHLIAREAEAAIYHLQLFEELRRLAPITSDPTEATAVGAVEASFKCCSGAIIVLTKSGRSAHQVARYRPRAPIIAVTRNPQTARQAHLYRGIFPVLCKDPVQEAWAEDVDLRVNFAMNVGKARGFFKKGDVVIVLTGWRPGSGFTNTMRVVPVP
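Purified hPK-M2 (>95%) run at intermediate activity with 0.1 mM ADP and 0.5 mM PEP in 50 mM imidazole pH 7.2, KCl, MgCl2; 1 h room temperature. ATP formed read by Kinase-Glo luminescence; normalized to uninhibited and no-enzyme controls.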
USP2a block: USP2a (human) protease inhibition; AID 463254; Potency, µM (series often up to 38.3 µM), without a hit: at the top dose activity change, negative = inhibition, most hits filed as inhibitors; USP2 core, Ub-CHOP2 coupled fluorogenic reporter, 485/531; actives 0.01% (n = 330,000);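 further: potency means the concentration at half of the fitted maximal effect; plate controls were DMSO wells for no effect and full inhibition by NEM control for full effect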
Target sequence (O75604 whole entry, looked up): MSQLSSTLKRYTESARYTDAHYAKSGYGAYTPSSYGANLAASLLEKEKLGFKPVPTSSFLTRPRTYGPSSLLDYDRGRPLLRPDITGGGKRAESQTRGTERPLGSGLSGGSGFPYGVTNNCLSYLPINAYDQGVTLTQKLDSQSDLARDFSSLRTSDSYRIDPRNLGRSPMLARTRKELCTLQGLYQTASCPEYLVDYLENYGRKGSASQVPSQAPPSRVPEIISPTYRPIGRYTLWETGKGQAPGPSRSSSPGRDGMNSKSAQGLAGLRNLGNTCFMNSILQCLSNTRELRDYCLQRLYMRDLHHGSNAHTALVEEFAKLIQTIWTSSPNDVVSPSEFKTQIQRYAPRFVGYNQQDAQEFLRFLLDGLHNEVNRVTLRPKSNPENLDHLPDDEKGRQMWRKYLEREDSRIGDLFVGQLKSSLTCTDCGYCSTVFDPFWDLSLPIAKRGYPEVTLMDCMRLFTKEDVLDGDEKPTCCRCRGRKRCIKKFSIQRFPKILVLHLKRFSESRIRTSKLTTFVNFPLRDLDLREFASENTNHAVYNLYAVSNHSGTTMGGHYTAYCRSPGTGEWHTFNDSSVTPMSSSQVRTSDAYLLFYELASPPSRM
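Deubiquitinase activity read as fluorescence (485/531 nm) after Ub-CHOP2 cleavage activates the enterokinase reporter on its substrate; USP2 core 10nM, Ub-CHOP2 and substrate 25nM each, 30min compound preincubation then 60min RT; data normalized to NEM, curves fitted.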
GALK inh: blocks human galactokinase activity; P51570; Purified GALK, Kinase-Glo residual ATP luminescence; Potency, µM (series often up to 57.5 µM), for the others: top-dose activity change, negative = inhibition, hits mostly inhibitors; actives 0.007% (n = 270,000); AID 1868; further: potency means the concentration at half of the fitted maximal effect
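Luminescence from leftover ATP (Ultra-Glo luciferase/luciferin) served as read-out after a 1 h room-temperature reaction of 5 nM GALK with 35 uM ATP and 100 uM galactose.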
BCR signal inh: chronic active BCR signaling inhibition. ABC-DLBCL IkBa-CBG/CBR reporter, luminescence ratio, 4 h. Potency, µM (highest dose often 46.1 µM), inactives show top-dose ratio change, negative = lower green/red ratio, most hits filed as inhibitors. actives 0.05% (n = 340,000). AID 493014; active means well fitted inhibition curve with a large enough effect in the signal ratio, with a control signal flat, not every such curve was filed as active; inconclusive means small, poorly fitted or top-dose-only effect, or effect the other way, or a change in a side signal; the % refers to the signal ratio;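 further: potency means the concentration at half of the fitted maximal effect; plate controls were basal doxycycline-induced cells for no effect and cells given 10 µM MG132 for full effect; MG132 reads +100%, hits lower the ratio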
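Doxycycline induced both beetle luciferases in TMD8 lymphoma cells; IKK-driven degradation limits the IkappaBalpha-fused green signal, while red luminescence normalises for cell number and nonspecific effects. Compounds tested up to 46 uM, 4 hrs.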
Coupling enz: coupling enzyme interference in Giardia aldolase counter-screen; activity change, negative = inhibition, % at 58.2 µM, hits read low; coupling enzyme system counterscreen, AmpLite Red fluorescence; actives 0.67% (n = 290,000); in the data active means activity change below about -30%
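First, compound is pin-transferred into glyceraldehyde-3-phosphate coupling-enzyme reagent at 57.5 uM final and held 10 min at RT. Next, substrate, coupling system and AmpLite Red are added. After 20 min RT, fluorescence (525/598 nm) is read.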
Giardia killer: kills Giardia lamblia | actives 0.15% (n = 340,000) | Giardia lamblia trophozoite viability | activity change, % at 7.66 µM, hits read low | AID 540267; in the data active means activity change below about -80%; inconclusive means between about -30% and that limit;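 further: parasites exposed to compound for two days anaerobically before the ATP read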
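Luminescence from cellular ATP indicates surviving trophozoites (100 cells/well) following 48 hrs anaerobic compound treatment at 37 deg C; signal develops 15-30 min at room temperature.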
uPA generation: cell surface uPA generation inhibition; cell surface uPA generation assay, qHTS; Potency, µM (top dose mostly 38.3 µM), for the others: top-dose activity change, negative = inhibition, actives largely listed as inhibitors; actives 0.31% (n = 330,000); AID 540303; active means well fitted inhibition curve with a large enough effect; inconclusive means small, poorly fitted or top-dose-only effect; inactive means no such curve, though single readings can be large or run the other way; tested in mouse RAW 264.7 cells; further: potency means the concentration at half of the fitted maximal effect; nearly all actives have a fitted effect of over 55% in size
Active calls of the source: *; ? = inconclusive; . = no result given; & = joins results of further samples; [ ] = dose if it differs, or a comment. Unless noted, the call rests on the fitted dose curve; in most records, active means well fitted curve in the direction sought with a large enough effect; inconclusive means small, poorly fitted or top-dose-only effect, or another doubt; inactive means no such curve, though single readings can be large; an effect the other way counts as inactive or inconclusive. Unless noted, on the % scale 0 is the no-effect control and ±100 the full control effect.

SMILES | PKM2 act | USP2a block | GALK inh | BCR signal inh | Coupling enz | Giardia killer | uPA generation
CC[N+](C)(C)Cc1ccccc1Br | -1% | 6% | 4% | 10% | -2&2 | 1 | 13%
CC(=O)C1CCC2C3CCC4=CC(=O)CCC4(C)C3CCC12C (configuration not stated) | . | . | . | . | 1 | . | .
O=C(O)CCc1nc(-c2ccccc2)c(-c2ccccc2)o1 | -7% | 7% | -2% | 4% | 3&12&0 | . | .
O=C(CSc1ccc(-c2ccccn2)nn1)Nc1ccc(F)c(F)c1 | 6% | 4% | -4% | 5% | . | -21 | -7%
COc1cnc(-c2ccccn2)nc1Oc1c(C)cccc1C | -2% | -1% | 1% | 1% | -2 | -19 | 11%
CC(C)(C(=O)O)c1ccc(C(O)CCCN2CCC(C(O)(c3ccccc3)c3ccccc3)CC2)cc1 (configuration not stated) | 2%&-19% | 0% | . | -3% | 2&-2&2 | 13 | 3%
O=C(CSc1nnc(C2COc3ccccc3O2)o1)Nc1nccs1 (configuration not stated) | -19% | 5% | -1% | ? | 0 | -14 | -15%
CCc1ccccc1NC(=S)N(CCN(C)C)C(C)c1ccccn1 (configuration not stated) | 0% | 3% | 3% | -15% | 2 | -4 | .
CC12CCC3c4ccc(O)cc4CCC3C1CCC2O (configuration not stated) | . | . | . | . | 1 | . | .
O=C(N/N=C(\Cc1ncc[nH]1)c1ccccc1)c1cccnc1 | -3% | 3% | -1% | ? | -4 | 1 | ?
CN1CCc2cc(Cl)c(O)cc2[C@@H](c2ccccc2)C1 | -2% | 0% | -2% | ? | 2&1 | ? | 11%
Cc1ccc(S(=O)(=O)NC(=O)NN2CCCCCC2)cc1 | 0% | 2% | -1% | -1% | -1&0&0 | -19 | 1%
COC(=O)[C@H]1[C@H]2CC3c4[nH]c5ccccc5c4CCN3C[C@@H]2CC[C@@H]1O (some centres not stated) | . | . | . | . | 2 | . | .
CCC(=O)OCC(=O)[C@@]1(OC(=O)CC)[C@@H](C)C[C@H]2[C@@H]3CCC4=CC(=O)C=C[C@]4(C)[C@@]3(Cl)[C@@H](O)C[C@@]21C | . | -12% | . | ? | . | 30[activator] | ?
CC1(C)S[C@@H]2[C@H](NC(=O)[C@H](N)c3ccccc3)C(=O)N2[C@H]1C(=O)O | 4%&7% | 10%&2% | 0%&1% | 1%&-3% | 6&0&3 | -15&6 | 3%&14%
Cc1ccc(CNC(=O)CSc2ccc(-c3ccccn3)nn2)cc1 | -4% | 0% | 0% | -13% | -5 | 11 | 2%
Cc1ncc([N+](=O)[O-])n1CCO | 8%&-2% | 3%&6% | 2%&6% | -7%&-9% | 0&3&4&-5 | ? | 8%
C=CCc1ccccc1OC[C@H](O)CNC(C)C | . | . | . | . | 0 | . | .
O=C(CSc1ccc2nnc(-c3ccccn3)n2n1)Nc1ccc(F)cc1F | 0% | 3% | 5% | -2% | 0 | 11 | ?
O[C@H](c1cc(C(F)(F)F)nc2c(C(F)(F)F)cccc12)[C@H]1CCCCN1 | . | . | . | . | -1 | . | .
CN1C2CC(OC(=O)C(CO)c3ccccc3)CC1C1OC12 (configuration not stated) | -2% | 0%&1%&0% | . | 0%&-2%&-3% | 0&1 | -3&-16&-20 | -5%&-6%&3%
C[C@@H](NC(=O)c1[nH]cnc1C(=O)Nc1nccs1)c1ccccc1 | . | 0% | . | 9% | . | -6 | -5%
COC(=O)[C@@H]1[C@H]2C[C@H]3c4[nH]c5ccccc5c4CCN3C[C@@H]2CC[C@@H]1O | -4% | 1% | . | -16% | 1 | -5&-21 | 4%&4%
Cc1[nH]c(=O)c(C#N)cc1-c1ccncc1 | -1% | 4% | 1% | -16% | 3&-1&1 | -13 | -5%
CCCCNC(=O)NS(=O)(=O)c1ccc(C)cc1 | -7% | 3% | -1% | 7% | 3&0&3 | 13 | 15%

Fetched by compound from above:
SMILES | PKM2 act | USP2a block | GALK inh | BCR signal inh | Coupling enz | Giardia killer | uPA generation
Cc1ncc([N+](=O)[O-])n1CCO | 8%&-2% | 3%&6% | 2%&6% | -7%&-9% | 0&3&4&-5 | ? | 8%
CCC(=O)OCC(=O)[C@@]1(OC(=O)CC)[C@@H](C)C[C@H]2[C@@H]3CCC4=CC(=O)C=C[C@]4(C)[C@@]3(Cl)[C@@H](O)C[C@@]21C | . | -12% | . | ? | . | 30[activator] | ?
O=C(CSc1nnc(C2COc3ccccc3O2)o1)Nc1nccs1 (configuration not stated) | -19% | 5% | -1% | ? | 0 | -14 | -15%

(more compounds)
SMILES | PKM2 act | USP2a block | GALK inh | BCR signal inh | Coupling enz | Giardia killer | uPA generation
O=C(NCCCNC1CCCCC1)c1ccc(/C=N/O)nc1 | 0% | 4% | 0% | 1% | 0 | ? | 6%
CC(=O)O[C@H]1C(=O)[C@@]2(C)[C@H]([C@H](OC(=O)c3ccccc3)[C@]3(O)C[C@H](OC(=O)[C@H](O)C(NC(=O)c4ccccc4)c4ccccc4)C(C)=C1C3(C)C)[C@]1(OC(C)=O)CO[C@@H]1C[C@@H]2O (some centres not stated) | -5% | -13% | -2% | -10% | 0 | ? | -3%
O=C1OC(C(O)CO)C(O)=C1O (configuration not stated) | . | . | . | . | 0 | . | .
CC(=O)Nc1cccc(NC(=O)CSc2ccc(-c3ccccn3)nn2)c1 | -16% | 2% | 0% | ? | -1 | -2 | 5%
CC(=O)[C@@]1(O)CC[C@H]2[C@@H]3CCC4=CC(=O)CC[C@]4(C)[C@H]3CC[C@@]21C | 3% | 4% | 5% | 3% | 2 | -8 | -14%
CCC[C@H]1C[C@H](C(=O)N[C@@H]([C@H]2O[C@@H](SC)[C@@H](O)[C@@H](O)[C@@H]2O)[C@H](C)Cl)N(C)C1 | . | . | . | . | 0 | . | .
COC1=CC(=O)C[C@@H](C)[C@]12Oc1c(Cl)c(OC)cc(OC)c1C2=O | 19% | 0% | . | -12% | 0&3 | 0 | ?
CCn1cc(C(=O)O)c(=O)c2cc(F)c(N3CCNCC3)cc21 | 0% | 3% | 0% | ? | -7&0&1 | . | .
Cc1ccccc1NC(=O)CSc1ccc(-c2ccccn2)nn1 | -4% | -1% | -5% | 0% | . | 19 | -3%
CN/C(=C/[N+](=O)[O-])NCCSCc1ccc(CN(C)C)o1 | -3% | 4% | 1% | -36% | -4 | -17 | 9%
O=C(Nc1ccc([N+](=O)[O-])cc1Cl)c1cc(Cl)ccc1O | . | 0% | . | ? | -3&0 | ? | ?
NC(=O)c1cccnc1 | -6% | 3% | -2% | -1% | 3&1&2 | 5 | 0%
CC(CN(C)C)CN1c2ccccc2CCc2ccccc21 (configuration not stated) | -3% | -1% | 0% | -1% | 2&0 | -12 | 9%
COc1cc(OC)cc(C(=O)NC(=S)NNC(=O)c2cnccn2)c1 | -4% | 4% | 0% | 5% | 2 | 11 | -2%
C#C[C@]1(O)CC[C@H]2[C@@H]3CCc4cc(OC)ccc4[C@H]3CC[C@@]21C | -1% | -6% | 0% | ? | 3 | -10 | 3%
COc1cc(CNC(=O)CCCC/C=C\C(C)C)ccc1O | -2% | 4% | 5% | 1% | 3&2&5&4 | . | .
CC(C)(C#N)c1cc(Cn2cncn2)cc(C(C)(C)C#N)c1 | 2% | 0% | 5% | ? | 2 | . | .
Cc1ccc(C(=O)N/N=C\c2ccccn2)cn1 | -2% | 1% | 2% | 17% | -1 | -7 | -12%
OCC(O)C(O)[C@H](O[C@H]1OC(CO)C(O)C(O)C1O)[C@H](O)CO (some centres not stated) | . | . | . | . | 0 | . | .
Cn1cnc2c1c(=O)[nH]c(=O)n2C | -3% | 2% | -1% | 3% | -2&-1&1&1 | . | .
CC12CC[C@@H]3c4ccc(OS(=O)(=O)O)cc4CC[C@H]3C1CCC2=O (some centres not stated) | . | . | . | . | 0 | . | .
CC[C@@H]1OC(=O)[C@@H](C)[C@H](O[C@H]2C[C@@](C)(OC)[C@@H](O)[C@H](C)O2)C(C)[C@H](O[C@H]2O[C@@H](C)C[C@@H](N(C)C)[C@@H]2O)[C@@](C)(O)C[C@H](C)C(=O)[C@@H](C)[C@H](O)[C@@]1(C)O (some centres not stated) | . | . | . | . | 1 | . | .
O=C(O)COCCN1CCN([C@H](c2ccccc2)c2ccc(Cl)cc2)CC1 | -4% | 0% | -2% | -26% | -1 | -18 | -2%
CC1(C)SC2C(NC(=O)C(N)c3ccccc3)C(=O)N2C1C(=O)O (configuration not stated) | . | . | . | . | 8 | . | .
CS(=O)(=O)Nc1cccc2cccnc12 | 4% | -3% | 5% | ? | -3 | -3 | -5%

Complete entries as entered above.
Entry for `COc1cc(OC)cc(C(=O)NC(=S)NNC(=O)c2cnccn2)c1` : PKM2 act: -4%; USP2a block: 4%; GALK inh: 0%; BCR signal inh: 5%; Coupling enz: 2; Giardia killer: 11; uPA generation: -2%
Entry for `CC(=O)O[C@H]1C(=O)[C@@]2(C)[C@H]([C@H](OC(=O)c3ccccc3)[C@]3(O)C[C@H](OC(=O)[C@H](O)C(NC(=O)c4ccccc4)c4ccccc4)C(C)=C1C3(C)C)[C@]1(OC(C)=O)CO[C@@H]1C[C@@H]2O` (some centres not stated) : PKM2 act: -5%; USP2a block: -13%; GALK inh: -2%; BCR signal inh: -10%; Coupling enz: 0; Giardia killer: ?; uPA generation: -3%
Entry for `CC1(C)SC2C(NC(=O)C(N)c3ccccc3)C(=O)N2C1C(=O)O` (configuration not stated) : PKM2 act: .; USP2a block: .; GALK inh: .; BCR signal inh: .; Coupling enz: 8; Giardia killer: .; uPA generation: .

(more compounds)
SMILES | PKM2 act | USP2a block | GALK inh | BCR signal inh | Coupling enz | Giardia killer | uPA generation
O=C(CSc1ccc2nnc(-c3ccccn3)n2n1)Nc1ccc2c(c1)OCO2 | 2% | 0% | 0% | 0% | 3 | -12 | -5%
COc1ccc(C(=O)NCc2nnc(SCC(=O)Nc3cc(C)on3)o2)cc1OC | 3% | 8% | 1% | 3% | 1 | 24 | 2%
CCCCNc1cc(C(=O)O)cc(S(N)(=O)=O)c1Oc1ccccc1 | 1% | 2% | -2% | -5% | 9&6&3 | 7 | -12%
CCOC(=O)c1cnc(-c2ccc(C(F)(F)F)cn2)[nH]c1=O | -1% | -1% | . | 6% | -1 | 6 | 0%
O[C@@](CCN1CCCCC1)(c1ccccc1)[C@@H]1C[C@H]2C=C[C@@H]1C2 | . | . | . | . | 1 | . | .
CN=C(C[N+](=O)[O-])NCCSCc1ccc(CN(C)C)o1 | . | 2% | . | -1% | . | 5 | -3%
O=C(CSc1nnc(CNC(=O)c2ccccc2)o1)Nc1nccs1 | 8% | 3% | -5% | 3% | . | ? | -5%
O=c1[nH]cnc2c1ncn2[C@H]1CC[C@@H](CO)O1 | 0% | 5% | -3% | 10% | 5&0 | -7&15 | 7%
Cc1cccc(CN2CCN(C(c3ccccc3)c3ccc(Cl)cc3)CC2)c1 (configuration not stated) | -1% | 2% | 5% | ? | 1&0 | -3 | -7%
COc1cc(CNC(=O)CCCC/C=C/C(C)C)ccc1O | . | 5% | . | 1% | 6&6&1 | -23 | -25%

Not all compounds are listed. The share of hits here may be higher or lower than overall.
